VDR inh: Inhibitors of the vitamin D receptor (VDR): qHTS; Vitamin D3 receptor (Homo sapiens), P11473; VDR-SRC2-3 peptide fluorescence polarization, 2 h; Potency, µM, without a hit: max response, negative = inhibition, most hits filed as inhibitors; actives 0.93% (n = 400,000); active = well fitted inhibition curve with a large enough effect; inconclusive = small, poorly fitted or top-dose-only effect, or another doubt; inactive = no such curve, though single readings can be large or run the other way; also: series mostly up to about 120 µM
Target sequence (P11473 whole entry, looked up): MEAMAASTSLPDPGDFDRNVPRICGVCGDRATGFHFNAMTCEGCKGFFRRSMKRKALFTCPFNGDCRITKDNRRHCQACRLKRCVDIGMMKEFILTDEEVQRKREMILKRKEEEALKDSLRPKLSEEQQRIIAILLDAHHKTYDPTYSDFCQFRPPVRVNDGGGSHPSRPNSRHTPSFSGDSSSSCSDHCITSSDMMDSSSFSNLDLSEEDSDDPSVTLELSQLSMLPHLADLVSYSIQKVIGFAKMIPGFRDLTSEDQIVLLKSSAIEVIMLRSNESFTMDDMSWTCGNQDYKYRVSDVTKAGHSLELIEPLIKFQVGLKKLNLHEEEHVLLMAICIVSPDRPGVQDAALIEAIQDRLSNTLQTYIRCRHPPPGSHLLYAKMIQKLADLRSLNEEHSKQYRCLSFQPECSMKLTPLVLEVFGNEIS
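Signal is fluorescence polarization, reporting how far test compounds block the interaction of VDR with the SRC2-3 coregulator peptide after a 2 h room-temperature incubation.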
An asterisk follows results filed as active; ? = inconclusive; [ ] = another dose, or the depositor's remark. % is scaled to controls: 0 for no effect and ±100 for the full control effect; potency is read from the fitted curve at half-maximal effect. The list is partial; count on the stated rates, not on these rows.

Preview (16 entries):
SMILES | VDR inh
Cc1c2c(nc3ccccc13)CCC(C(C)(C)C)C2 (centres undefined) | -7%
Cc1ccc(-c2nc(CS(=O)(=O)CC(=O)NCc3ccc(Cl)cc3)c(C)o2)cc1 | -21%
Cc1ccc(CC2(c3ccccc3)NC(=O)NC2=O)cc1 (centres undefined) | 17%
CCCCn1c(N)c(N(CCOC)C(=O)c2ccc(-c3ccc([N+](=O)[O-])cc3)o2)c(=O)[nH]c1=O | 5%
Cc1cc(/C=N\NC(=O)COc2cccc3cccnc23)c(C)n1-c1ccc(Br)cc1 | -13%
CSc1cccc(NC(=S)N(CCC(C)C)C(C)c2ccncc2)c1 (centres undefined) | -26%
O=C(COC(=O)c1cc(=O)[nH]c(=O)[nH]1)Nc1cccc(Cl)c1 | 12%
CC(C)Cn1c(N)c(C(=O)COC(=O)c2cccnc2Cl)c(=O)n(C)c1=O | 2%
C=C(C)Cn1c(=S)[nH]c2ccccc2c1=O | 12%
CC(=O)c1ccc(OCCCC(=O)Nc2ccc(C)c(S(=O)(=O)N(C)C)c2)cc1 | -6%
O=c1cc(-c2cccc(Br)c2)nc(-c2ccccc2F)o1 | -6%
CCOc1ccc(NC(=O)CC2C(=O)N(c3ccc(Cl)cc3)C(=O)N2Cc2cccs2)cc1 (centres undefined) | -5%
Cc1c(C(=O)N2CCCCC2C)sc2ncnc(N3CCc4ccccc4C3)c12 (centres undefined) | 3%
O=C(O)c1ccc(N/N=C/c2ccc(-c3ccc(Br)cc3)o2)cc1 | 0%
CC1CCN(S(=O)(=O)c2cn(CC(=O)Nc3ccc(F)cc3)c(=O)c3ccccc23)CC1 | -18%
Cc1ccc(Cl)cc1N1CCN(C(=O)C2CCN(S(=O)(=O)c3cccnc3)CC2)CC1 | -14%

The whole of this part, repeating the preview:
SMILES | VDR inh
Cc1c2c(nc3ccccc13)CCC(C(C)(C)C)C2 (centres undefined) | -7%
Cc1ccc(-c2nc(CS(=O)(=O)CC(=O)NCc3ccc(Cl)cc3)c(C)o2)cc1 | -21%
Cc1ccc(CC2(c3ccccc3)NC(=O)NC2=O)cc1 (centres undefined) | 17%
CCCCn1c(N)c(N(CCOC)C(=O)c2ccc(-c3ccc([N+](=O)[O-])cc3)o2)c(=O)[nH]c1=O | 5%
Cc1cc(/C=N\NC(=O)COc2cccc3cccnc23)c(C)n1-c1ccc(Br)cc1 | -13%
CSc1cccc(NC(=S)N(CCC(C)C)C(C)c2ccncc2)c1 (centres undefined) | -26%
O=C(COC(=O)c1cc(=O)[nH]c(=O)[nH]1)Nc1cccc(Cl)c1 | 12%
CC(C)Cn1c(N)c(C(=O)COC(=O)c2cccnc2Cl)c(=O)n(C)c1=O | 2%
C=C(C)Cn1c(=S)[nH]c2ccccc2c1=O | 12%
CC(=O)c1ccc(OCCCC(=O)Nc2ccc(C)c(S(=O)(=O)N(C)C)c2)cc1 | -6%
O=c1cc(-c2cccc(Br)c2)nc(-c2ccccc2F)o1 | -6%
CCOc1ccc(NC(=O)CC2C(=O)N(c3ccc(Cl)cc3)C(=O)N2Cc2cccs2)cc1 (centres undefined) | -5%
Cc1c(C(=O)N2CCCCC2C)sc2ncnc(N3CCc4ccccc4C3)c12 (centres undefined) | 3%
O=C(O)c1ccc(N/N=C/c2ccc(-c3ccc(Br)cc3)o2)cc1 | 0%
CC1CCN(S(=O)(=O)c2cn(CC(=O)Nc3ccc(F)cc3)c(=O)c3ccccc23)CC1 | -18%
Cc1ccc(Cl)cc1N1CCN(C(=O)C2CCN(S(=O)(=O)c3cccnc3)CC2)CC1 | -14%
N#CCCN(C(=O)COC(=O)CCc1nc2ccccc2c(=O)[nH]1)c1ccc(F)cc1 | 2%
NS(=O)(=O)c1ccc(CCNC(=O)C(=O)c2cn(CC(=O)N3CCOCC3)c3ccccc23)cc1 | -7%
Cc1ccc(NC(=O)CS(=O)CC(=O)N(c2ccc(C)cc2)C(C)C(=O)NC2CCCCC2)cc1 (centres undefined) | 20%
Cc1cccc2cc3c(N)c(C(=O)N4CCCc5ccccc54)sc3nc12 | -20%
CC1CCCC(NS(=O)(=O)c2cc3c(cc2Cl)NC(=O)CO3)C1C (centres undefined) | 26%
N#Cc1cccc(NC(=O)CC2CCCCC2)c1 | -2%
CCc1ccccc1NC(=O)CN(c1ccc(OC)cc1)S(=O)(=O)c1c(C)n[nH]c1C | -6%
Cc1cc(C)[n+](C)n1CC(O)Cn1c2ccccc2c2ccccc21 (centres undefined) | -20%
CC(=O)c1cccc(NC(=S)NCCc2ccc(Cl)cc2)c1 | -12%
Cc1ccc([N+](=O)[O-])cc1S(=O)(=O)Nc1cccc(S(=O)(=O)NC2=NCCC2)c1 | -9%
O=C(CNC(=O)c1ccc(Br)o1)NNC(=O)c1ccccc1 | -9%
O=C(Nc1ccc(CN2CCS(=O)(=O)CC2)cc1)c1ccccc1 | -4%
COc1ccc(NC(=S)NC2CCCCC2)cn1 | 2%
COc1ccc(CC(=O)NC2CCSc3ccccc32)cc1OC (centres undefined) | -14%
CCN(CC)c1cc(C)c2cc(NC(=O)/C=C/c3cc(OC)c(OC)c(OC)c3)ccc2n1 | -11%
c1ccc(-c2nc(-c3ccncc3)n[nH]2)nc1 | -12%
Cc1cc(C)nc(/N=C(/NC(=O)Nc2ccc(Cl)c(Cl)c2)Nc2cccc(Cl)c2)n1 | -20%
CCOc1ccc(CCNC(=O)C2CCN(C(=O)N3CC(CC)Oc4ccc(C)cc43)CC2)cc1 (centres undefined) | 9%
O=C(OCCc1cc2ccccc2c(=O)o1)c1ccc2c(c1)OCO2 | 0%
COC(=O)c1cc(NC(=S)N2CCN(c3ccccn3)CC2)cc(C(=O)OC)c1 | -1%
CCOC(=O)C1=C(CNCCc2ccc(Cl)cc2)NC(=O)NC1c1ccc2c(c1)OCO2 (centres undefined) | 2%
Oc1ccc(/C(Cc2ccccn2)=N\Nc2ccccc2)c(O)c1 | 3%
Cc1ccc(S(=O)(=O)N2CCN(C(=O)c3ccc4c(c3)OCO4)CC2)cc1 | 15%
CCOC(=O)C1CCN(c2ncnc3c2oc2ccc(Cl)cc23)CC1 | -5%
O=C(CCCCn1c(=O)c2ccccc2n(Cc2cccc(F)c2)c1=O)NCc1ccc2c(c1)OCO2 | 40%[activator]
CCOc1ccc(C(C)NC(=S)NCc2ccc(F)cc2)cc1 (centres undefined) | 9%
O=C(Nc1ccccc1)c1ccccc1NC(=O)C1CCCCC1 | -6%
COc1ccc(NC(=O)CCS(=O)(=O)c2nc(-c3ccc4c(c3)OCO4)cc(C(F)(F)F)n2)cc1OC | ?
CCCc1c(C)nc(N2CCN(c3ccccc3F)CC2)[nH]c1=O | -18%
COc1ccc(-n2cc(CN(C)C(C)c3ccncn3)c(-c3cccc(F)c3)n2)cc1 (centres undefined) | -2%
O=c1oc(Nc2cccc(Cl)c2)nc2ccccc12 | 0%
CCCN1C(=O)C(Cc2nc3ccccc3c(=O)n2CC)c2cc(Br)ccc21 (centres undefined) | -9%
O=C1C(=Cc2cccs2)C(=O)c2ccccc21 | 8%
Cc1ccc(NC(=O)c2ccncc2)cc1[N+](=O)[O-] | -2%
Cc1nnc(N/N=C/c2ccccc2F)n1N | -5%
Cc1cccc(CSc2ncc(Cl)c(C(=O)Nc3nc4ccc(F)cc4s3)n2)c1 | -9%
Cc1[nH]c2ccccc2c1C(O)CN1CCC2(CC1)OCCO2 (centres undefined) | -8%
CC(=O)Nc1ccc(NC(=O)CN2C(=O)CCc3cc(S(=O)(=O)N4CCCCC4)ccc32)cc1 | 5%
c1cncc(-c2nnc3n2CCC3)c1 | -1%
O=C(c1cnc(N2CCOCC2)c2ccccc12)N1CCN(c2ccc(F)cc2)CC1 | 13%
CCN(CC)CC#CCC(O)(c1ccccc1)c1ccc(Br)cc1 (centres undefined) | ?
O=C(N/N=C/C=C/c1ccccc1[N+](=O)[O-])c1cccs1 | -12%
Cc1ccc(CNC(=O)C(=O)c2cn(CC(=O)N3CCCC3)c3ccccc23)cc1 | -18%
CCCCN(C(=O)Cc1cccc(F)c1)c1c(N)n(CCC)c(=O)[nH]c1=O | -1%

The results go on.
SMILES | VDR inh
CN1CCN(C(=O)c2ccc3c(=O)n(-c4ccc(F)cc4)c(=S)[nH]c3c2)CC1 | 0%
O=C(CN1CC[n+]2c(-c3ccccc3)csc21)c1ccc(Br)cc1 | -28%
O=C1C2C(C(=O)N1c1nccs1)C1C=CC2C12CC2 (centres undefined) | -21%
Cc1nnsc1C(=O)NC(C)C12CC3CC(CC(C3)C1)C2 (centres undefined) | 6%
CC[C@@H]1CCCCc2ccccc2[C@H](C(=O)C[C@H](O)CC(C)=O)OC1=O | 15%
CCCN(CCC)CCNc1c(NC2CCN(C(=O)OCC)CC2)c(=O)c1=O | 12%
COc1ccc(/C=C(/C(=O)Nc2ccccc2C(=O)N2CCCC2)c2ccccc2)cc1 | 2%
Cc1ccc(-c2csc(N=C(N)N)n2)c(C)c1 | -13%
O=C(COC(=O)Cc1ccsc1)Nc1ccc(Br)cc1F | -6%
CSCC[C@H](NC(=O)c1ccc(OCC2CCCO2)cc1)c1nc2ccccc2[nH]1 (some centres undefined) | -25%
CN(Cc1ccccc1)C(=O)c1[nH]cnc1C(=O)N[C@@H](Cc1ccccc1)C(=O)OC(C)(C)C | 2%
CC(C)C(c1nnnn1CCc1ccccc1)N1CCN(C(=O)c2ccco2)CC1 (centres undefined) | -28%
CCCOc1ccc(C(NC(=O)CC(C)C)NC(=O)CC(C)C)cc1OC | 1%
CCCCCCCC/C=C\CCCCCCCC(=O)N[C@H](CO)Cc1ccc(O)cc1 | -1%
COc1ccc(NCc2cccn2-c2nnc(N3CCCCC3)s2)cc1OC | 1%
Cc1ccc(SC(C)C(=O)NC2CC2)cc1 (centres undefined) | -22%
CCCSC1=C(C#N)C(c2cccs2)CC(=O)N1 (centres undefined) | -8%
O=C(Nc1ccc(NC(=O)C2CC2)cc1)c1ccco1 | 5%
CC(=O)/C=C1/SC(CC(=O)O)C(=O)N1c1ccccc1 (centres undefined) | 8%
Clc1ccc(-c2nc(C3CCCCC3)no2)cc1 | 0%
CCOc1ccccc1NC(=O)CCS(=O)(=O)c1ccc2c(c1)CCN2C(C)=O | -5%
O=C(C1CC1)N1CCc2cc(Br)cc(S(=O)(=O)NCCN3CCOCC3)c21 | 1%
CN(C)S(=O)(=O)c1cccc(NC(=O)COC(=O)CCOc2ccccc2)c1 | 2%
Clc1ccc(-c2ccnc(-n3cccc3)n2)s1 | 20%
CCCCc1ccc(NC(=O)c2ccc(NS(C)(=O)=O)cc2)cc1 | 16%
CC1CCN(C(=O)c2cccc(S(=O)(=O)N3CCCCC3)c2)CC1 | -2%
COc1ccc(/C=C/C(=O)c2ccc(Cl)s2)cc1O | 79µM*
OCCCn1c(C2CCCN2c2nc(-c3ccc(Cl)cc3)cs2)nc2cc(Cl)c(N3CCCCC3)cc21 (centres undefined) | -2%
CC(C)[C@@H](N)C(=O)NC[C@H]1O[C@@H](n2cnc3c(N)ncnc32)[C@H](O)[C@@H]1O | -10%
CCCCN(C(=O)COC(=O)c1ccc(C)s1)c1c(N)n(CCC)c(=O)[nH]c1=O | 16%
COc1cc(C(=O)Nc2ccc3c(c2)OCO3)c([N+](=O)[O-])cc1OC | -11%
CCc1nn2c(=O)cc(COC(=O)c3ccc(NC(=O)COc4ccc(C)cc4)cc3)nc2s1 | 22%
COc1ccc(S(N)(=O)=O)cc1C(=O)OCC(=O)Nc1ncc(Cl)c(C)c1Cl | 16%
CCOC(CNC(=O)c1ccc2c(c1)ncn2-c1ccccc1OC)OCC | -3%
CC1(C)CC(O)C(CCC(O)c2ccccc2)C(C)(C)N1 (centres undefined) | -9%
CCOc1ccc(NC(=O)CNC(=O)c2cn(-c3ccccc3OC)c(=O)c3ccccc23)cc1 | 4%

Ordered by value in VDR inh (descending): 3 of the compounds above.
| Compound | VDR inh |
| --- | --- |
| CCc1nn2c(=O)cc(COC(=O)c3ccc(NC(=O)COc4ccc(C)cc4)cc3)nc2s1 | 22% |
| CCOC(CNC(=O)c1ccc2c(c1)ncn2-c1ccccc1OC)OCC | -3% |
| COc1cc(C(=O)Nc2ccc3c(c2)OCO3)c([N+](=O)[O-])cc1OC | -11% |

(next part)
SMILES | VDR inh
O=c1c2ccccc2c(C=Nc2ccc(O)cc2)c(O)n1Cc1ccccc1 | 4%
O=C(Cc1cccc(NC(=O)C2CCN(C(=O)C3CCCCC3)CC2)c1)Nc1cccc(C(=O)N2CCCC2)c1 | -7%
CN1CCN(c2ccc([N+](=O)[O-])cc2C(=O)N2CCCCC2)CC1 | -20%
C=CCNC(=O)c1ccccc1NC(=O)Nc1ccccc1 | 1%
Cc1nc(Cl)sc1C(=O)NC(C)c1ccc(Cl)cc1 (centres undefined) | -9%
COc1ccc(Br)cc1-c1noc(-c2ccccc2)n1 | -4%
CCOC(=O)c1ccc2c(c1)[n+](CC)c(C)n2-c1ccccc1 | -10%
COc1ccc(CCNc2cc(=O)[nH]c(N)n2)cc1 | -2%
CN(C)c1cccc2c1C(=O)c1ccccc1C2=O | -25%
O=C(c1ccc2c(Cl)c3c(nc2c1)CCCC3)N1CCN(c2ccc(F)cc2)CC1 | -18%
COc1ccccc1CCN=C(N)NS(=O)(=O)c1ccccc1 | -4%
CC(C)c1cc(C(F)(F)F)n2nc(C(=O)Nc3ccc4c(c3)OCO4)cc2n1 | -4%
Cc1ccc(S(=O)(=O)N2CCCOC2CNC(=O)C(=O)NCCC2=CCCCC2)cc1 (centres undefined) | 7%
CC1CN(S(=O)(=O)c2cccc(C(=O)OC(C)C(=O)NC3CCCCC3C)c2)CC(C)O1 (centres undefined) | -3%
CCCCC1CCC(C(=O)N2CC(=O)Nc3ccc(F)cc3C2c2ccc(F)cc2)CC1 (centres undefined) | 12%
CC(CN1CCC(n2nccc2NC(=O)CCCc2ccccc2)CC1)c1ccccc1 (centres undefined) | -16%
CCN(CC)C(=O)c1ccc(C)c(Br)c1 | -14%
O=C(Nc1ccc2oc(=O)ccc2c1)c1ccc(-c2ccccc2[N+](=O)[O-])o1 | -3%
O=C(COC(=O)CCC(=O)c1cccs1)Nc1ccc(S(=O)(=O)N2CCOCC2)cc1 | -1%
COC(=O)C(NC(=O)CSc1nc(N)cc(=O)[nH]1)c1ccccc1 (centres undefined) | 0%
